Screening data deposited in PubChem BioAssay by Broad Institute.
Tg IFNy HTS: T. gondii growth inhibition under IFN-gamma; activity change, negative = inhibition, %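 (about 20 µM by stock and volumes)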; 69,000 compounds, 3.8% hits; AID 1259416; Toxoplasma gondii growth in IFN-gamma-treated host cells; hits give low values; reference of the scale not given here;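 active = below -70%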;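 also: host cells are HeLa cells infected with Toxoplasma gondii; parasite growth read as luciferase light; one replicate is shown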
* marks the source's active call; other numbers are inactive results; & = joins results of further samples. A portion of the library, so the mix of outcomes need not match the whole.

Screening Cc1nc(C(Cc2c[nH]c3ccccc23)NC(=O)c2snnc2C)cc(=O)[nH]1 (stereo not given) returned Tg IFNy HTS 43.2.
Screening CCOc1ccc2cc(-c3cc4c(c(C)n3)c(=O)oc3cc(OCC)ccc34)c(=O)oc2c1 returned Tg IFNy HTS -17.0.
CO[C@@H]1CN(C)C(=O)c2ccc(N)cc2OC[C@@H](C)NC[C@H]1C was read as Tg IFNy HTS 55.0.
Cn1cnc(S(=O)(=O)N[C@@H]2CC[C@H](CC(=O)NCC3CCCCC3)O[C@@H]2CO)c1 was read as Tg IFNy HTS 36.3.
For Cn1nc(C(F)(F)F)cc1C(=O)N1CCCC1c1ccccc1Cl (stereo not given) the results were Tg IFNy HTS -46.0.
CC(=O)NCc1cccc(-c2ccc(O)cc2)c1 was read as Tg IFNy HTS -4.1.
Screening O=C(Nc1ccc(N2C(=O)C3CC=CCC3C2=O)cc1Cl)c1cccs1 (stereo not given) returned Tg IFNy HTS -1.6.
Cc1ccc(C)c(S(=O)(=O)NCCOc2nc(NC(C)C)nc(NC(C)C)n2)c1 was read as Tg IFNy HTS -66.9.
`CN(CCNC1CCSC1)S(C)(=O)=O` (stereo not given) gave Tg IFNy HTS 6.6.
`CN(C)C(=O)CN1CCn2cc(Cn3cccn3)nc2C1` gave Tg IFNy HTS -3.2.
`Cc1c(F)cccc1NC(=O)CNC(CC(C)C)c1ncnn1C` (stereo not given) gave Tg IFNy HTS 47.8.
CNC(=O)CN1CCOCC12CCN(c1cnccn1)CC2 was read as Tg IFNy HTS -25.0.

As a working copy, some entries already given:
Screening Cc1nc(C(Cc2c[nH]c3ccccc23)NC(=O)c2snnc2C)cc(=O)[nH]1 (stereo not given) returned Tg IFNy HTS 43.2.
Screening CCOc1ccc2cc(-c3cc4c(c(C)n3)c(=O)oc3cc(OCC)ccc34)c(=O)oc2c1 returned Tg IFNy HTS -17.0.
CO[C@@H]1CN(C)C(=O)c2ccc(N)cc2OC[C@@H](C)NC[C@H]1C was read as Tg IFNy HTS 55.0.

Some of these compounds in order of molecular weight, descending.
Cn1cnc(S(=O)(=O)N[C@@H]2CC[C@H](CC(=O)NCC3CCCCC3)O[C@@H]2CO)c1 was read as Tg IFNy HTS 36.3.
CC(=O)NCc1cccc(-c2ccc(O)cc2)c1 was read as Tg IFNy HTS -4.1.
`CN(CCNC1CCSC1)S(C)(=O)=O` (stereo not given) gave Tg IFNy HTS 6.6.

Next section:
Screening CS(=O)(=O)N1CC2(C1)[C@H](c1ccccc1)[C@@H](CO)N2Cc1ccccc1 returned Tg IFNy HTS 46.9.
For CC(C)CNC(=O)c1ccc2nnc(C3CCN(C(C)C)C3)n2c1 (stereo not given) the results were Tg IFNy HTS -14.2.
For COCCN1CC[C@H]2OCC[C@@H](C(=O)N3CCCO3)[C@@H]2C1 the results were Tg IFNy HTS -6.0.
Screening COc1ccccc1S(=O)(=O)N(C)C[C@H]1OCc2cn(nn2)CCCC(=O)N([C@@H](C)CO)C[C@@H]1C returned Tg IFNy HTS -42.2.
OC(COC1=NCNc2cc(Cl)ccc21)c1ccc2c(c1)OCCO2 (stereo not given) was read as Tg IFNy HTS 0.4.
Screening COCC(=O)N1CC2(C1)[C@H](c1ccccc1)[C@H](CO)N2C(=O)NC1CCCC1 returned Tg IFNy HTS -11.5.
`c1nc(NCC2CCCO2)ncc1CN1CCCn2cncc2C1` (stereo not given) gave Tg IFNy HTS -28.6.
Cc1nc(CN(C)Cc2cccc(C(=O)Nc3ccc(F)cc3F)c2)no1 was read as Tg IFNy HTS 20.0.
CN(C)CCN1C(=O)CO[C@H]2CN(C(=O)COc3ccccc3)C[C@@H]21 was read as Tg IFNy HTS -1.6.
Cc1[nH]cnc1CN(C)C(C)C(=O)N(C)C (stereo not given) was read as Tg IFNy HTS 8.7.
CNC(=O)c1cc2c(nc1NCC(C)C)CCN(C(=O)Nc1ccccc1)CC2 was read as Tg IFNy HTS 5.6.
Screening Cc1c(C(=O)N2c3ccccc3CC2C)oc2c1C(=O)CC(C)(C)C2 (stereo not given) returned Tg IFNy HTS 261.2.

2 records drawn at random from the list so far:
Cc1[nH]cnc1CN(C)C(C)C(=O)N(C)C (stereo not given) was read as Tg IFNy HTS 8.7.
CNC(=O)c1cc2c(nc1NCC(C)C)CCN(C(=O)Nc1ccccc1)CC2 was read as Tg IFNy HTS 5.6.

(list continues)
Screening N#C[C@H]1[C@@H](c2ccc(-c3cccnc3)cc2)[C@@H](CO)N1C(=O)C1CCOCC1 returned Tg IFNy HTS 6.1.
Cn1cnc(CCNC(=O)C[C@H]2CC[C@@H]3[C@H](COC[C@@H](O)CN3C(=O)Nc3ccc(C(F)(F)F)cc3)O2)c1 was read as Tg IFNy HTS -34.2.
`O=C(O)c1ccc2nc3ccsc3c(=O)n2c1` gave Tg IFNy HTS 40.4.
Screening O=C(c1ccoc1)N1CCCn2c(nc(Cn3cncn3)cc2=O)C1 returned Tg IFNy HTS -8.7.
Screening CCCCCCCCCc1nc2c(=O)n(C)c3ccccc3c2o1 returned Tg IFNy HTS 4.5.
O=C(NCc1ccccc1)N1CC[C@@H](O)[C@@H]1Cc1cccnc1 was read as Tg IFNy HTS 163.1.
For O=C(c1nc2ccccc2s1)C1CCN(C(=O)CCn2c(=O)oc3ccccc32)CC1 the results were Tg IFNy HTS -40.1.
For CC1=Nc2cc(Cl)c(Cl)cc2NC(C)(C)C1 the results were Tg IFNy HTS 205.5.
`CCN(CC)CCNc1nc(-c2ccccn2)nc2c1CCN(Cc1ccc(C)cc1)C2` gave Tg IFNy HTS -43.2.
CCN1CCC2(CC1)NCCc1c2[nH]c2ccc(OC)cc12 was read as Tg IFNy HTS 127.7.
Cc1ccc(-c2cncnc2)c(-n2nc(C)cc2C)c1 was read as Tg IFNy HTS 4.4.
CN(C)c1nc2c(cc1C(=O)O)CCN(S(=O)(=O)C1CC1)CC2 was read as Tg IFNy HTS 8.4.
For CN1CC2(CCCN(C(=O)CCc3csc(N)n3)CC2)OC1=O (stereo not given) the results were Tg IFNy HTS 7.2.
CC(C)N(C)Cc1cc(=O)n2c(n1)CN(C(=O)c1cnccn1)CCC2 was read as Tg IFNy HTS 4.4.
`COc1ccc(-c2ccc([C@@H]3[C@@H](CO)N(C(=O)NC(C)C)[C@H]3C#N)cc2)cc1` gave Tg IFNy HTS 7.0.
Screening O=C(C[C@@H]1CC[C@H]2[C@@H](COC[C@@H](O)CN2S(=O)(=O)c2cccc(Cl)c2)O1)N1CCOCC1 returned Tg IFNy HTS 24.8.
For O=C1NCCN(S(=O)(=O)NCc2ccccc2)C1Cc1ccccc1 (stereo not given) the results were Tg IFNy HTS -8.2.
For Cc1ccc2c(c1)C(CCN)C(=O)N2Cc1ccccc1 (stereo not given) the results were Tg IFNy HTS 8.7.
`COCC1CN(C(=O)CS(C)(=O)=O)Cc2ncn(CC3CC3)c21` (stereo not given) gave Tg IFNy HTS -9.6.
`C=CCN1CC2(CCN(Cc3nccn3C)CC2)OCC1=O` gave Tg IFNy HTS 0.2.
Screening Fc1ccc(CNc2nc(-c3ccc(Cl)cc3)nc3ccccc23)cc1 returned Tg IFNy HTS -66.3.
Screening CC1c2ncc(CN3CCN(C)CC3)n2CCN1C(=O)C1CCOCC1 (stereo not given) returned Tg IFNy HTS 110.3.
`CCN1[C@H](C(=O)NCCOC)[C@@H](CO)[C@@H]2Cn3c(ccc(-c4ccc(C(=O)N(C)C)cc4)c3=O)[C@@H]21` gave Tg IFNy HTS -4.8.
Cn1c(=O)c(C(=O)NCc2nnc(-c3ccccc3)o2)nc2ccccc21 was read as Tg IFNy HTS 14.5.
Screening COCC(=O)N1C[C@@H]2OCCN(c3ccc(C)nn3)[C@H]2C1 returned Tg IFNy HTS 0.9.
For Cc1nn(C)c(Cl)c1S(=O)(=O)N1CC[C@@H]2CC[C@H](C1)N2C the results were Tg IFNy HTS -2.9.
Screening COCC(=O)N1CCc2onc(Cn3ccnc3)c2C1 returned Tg IFNy HTS -10.2.
For CCCOc1cc(N)ccc1C(=O)OCCN(CC)CC the results were Tg IFNy HTS 25.7.
CCN1CN=C(SCc2ccc(C)cc2)NC1 was read as Tg IFNy HTS 1.7.
Screening CNS(=O)(=O)CCNCC1(O)CCCN(Cc2cccc(C)c2)C1=O (stereo not given) returned Tg IFNy HTS -3.9.
`CCCc1c(OCC(O)COc2ccc3c(=O)cc(C(=O)O)oc3c2CCC)ccc(C(C)=O)c1O` (stereo not given) gave Tg IFNy HTS 2.4&15.4.
`O=C(OCCN1CCOCC1)C1(c2ccccc2)CCCCC1` gave Tg IFNy HTS -53.2&17.4.
CNC(=O)c1cc(-c2cccc(C(C)OC)c2)ccc1Cl (stereo not given) was read as Tg IFNy HTS -39.8.
`CO[C@@H]1CN(C)C(=O)c2ccc(NS(=O)(=O)CC(F)(F)F)cc2OC[C@H](C)N(Cc2nccs2)C[C@@H]1C` gave Tg IFNy HTS -28.0.
`COc1ccc(C(=O)NCCc2sc(-c3ccc(C)cc3)nc2C)cc1` gave Tg IFNy HTS 381.7.
`O=C(c1ccc2nsnc2c1)N1CCOC(C(=O)N2CCc3ccccc3C2)C1` (stereo not given) gave Tg IFNy HTS 6.4.
For OCCn1cc(-c2ccnc(N3CCCC3)n2)c(C2CCCN(CC3CC=CCC3)C2)n1 (stereo not given) the results were Tg IFNy HTS 4.8.
Screening CC(C)NC(=O)N1CCC(c2nc(CCNC(=O)C3CCC3)cs2)CC1 returned Tg IFNy HTS 68.0.
Cc1oc(-c2ccc(C(=O)NCc3ccccc3Cl)cc2)nc1CN1CCc2ccccc21 was read as Tg IFNy HTS -49.3.
Screening O=C(O)CC(Cc1ccc(Br)cc1)C(=O)Nc1ccccc1 (stereo not given) returned Tg IFNy HTS 17.2.
For COC(C)(C)CC(C)NCc1ccc2nonc2c1 (stereo not given) the results were Tg IFNy HTS 24.6.
For CC1CCN(C(=O)c2cc(=O)n(CC(=O)Nc3ccc(F)c(Cl)c3)c3ccccc23)CC1 the results were Tg IFNy HTS -14.7.
Cc1occc1-c1nnc(SCC(=O)Nc2sc3c(c2C(N)=O)CCC3)n1C was read as Tg IFNy HTS -1.9.
For Cc1nc(C)c(CC(=O)N(C)C2Cc3ccccc3C2)c(=O)[nH]1 the results were Tg IFNy HTS 9.3.
Cn1ncc2c1C(COCC1CC1)CN(C(=O)c1cccnc1)C2 (stereo not given) was read as Tg IFNy HTS 5.7.
`Fc1ccc(-c2nc3sccn3c2CN(Cc2ccccn2)CC2CCCO2)cc1` (stereo not given) gave Tg IFNy HTS 9.7.
CN1c2ccc(-c3ccc(F)cc3)cc2[C@H]2[C@H](CCN2C(=O)Cc2cccnc2)[C@@H]1CO was read as Tg IFNy HTS 14.3.
Screening Cc1[nH]c(=O)c(C#N)cc1-c1ccc2nccn2c1 returned Tg IFNy HTS 8.5&24.2.
Screening Cc1cc2nc3ccccc3c(=O)n2c(SCc2ccc(Cl)cc2Cl)n1 returned Tg IFNy HTS 4.3.
O=C1OCCN1CCNCC1(O)CCCN(Cc2ccc(F)c(F)c2)C1=O (stereo not given) was read as Tg IFNy HTS 4.3.
Screening N[C@@H]1CCCCN(c2c(F)cc3c(=O)c(C(=O)O)cn(C4CC4)c3c2Cl)C1 returned Tg IFNy HTS -9.5.
For O=C1CC(C(=O)O)C(c2ccccc2)O1 (stereo not given) the results were Tg IFNy HTS 19.6.
Screening COc1cc(CCC(=O)N2CCC3(CC2)Nc2ccccc2-n2cccc23)cc(OC)c1OC returned Tg IFNy HTS -20.5.
`COc1ccc2[nH]c3c(c2c1)CCN(C(=O)c1ccc(C)cc1)C31C(=O)Nc2ccccc21` (stereo not given) gave Tg IFNy HTS -97.2*.
`C/C=C(\C)CN(C)Cc1nc2ccc(C)cc2[nH]1` gave Tg IFNy HTS -37.9.
For COCCN1CC(NCC(=O)Nc2cccc(C)c2C)CC1=O (stereo not given) the results were Tg IFNy HTS -1.8.
Cc1ccccc1NC(=O)CC(=O)NCCC(=O)Nc1ccccc1F was read as Tg IFNy HTS 2.4.
Screening COc1ccc(-c2ccc([C@@H]3[C@H]4CN(Cc5ccccc5)CC(=O)N4[C@H]3CO)cc2)cc1 returned Tg IFNy HTS 17.9.
For CCOC(=O)c1nc(N2CCCC(C)C2)c2ccccc2n1 (stereo not given) the results were Tg IFNy HTS -35.4.
For CCn1ncnc1CN1CCN2CCN(C)C(=O)C2C1 (stereo not given) the results were Tg IFNy HTS -2.9.
`C[C@@H]1CCCCO[C@@H](CN(C)Cc2ccc(Cl)c(Cl)c2)[C@H](C)CN([C@H](C)CO)C(=O)c2cc(NS(=O)(=O)c3cccs3)ccc2O1` gave Tg IFNy HTS -53.9.
`CN1Cc2cncn2CC(COCC(=O)N2CCCC2)C1` (stereo not given) gave Tg IFNy HTS 1.0.
Screening Cn1nc(-c2ccc(Cl)cc2)cc1NC(=O)Nc1ccccc1 returned Tg IFNy HTS -40.9.
CCCc1nnc(C(=O)N2CC[C@H](O)[C@@H](O)C2)o1 was read as Tg IFNy HTS -49.2.
`CCC(c1ccncc1)n1ccnc1-c1nc[nH]c1C` (stereo not given) gave Tg IFNy HTS -4.8.
`C[C@@H]1CCCCO[C@@H](CN(C)C(=O)Nc2ccc3c(c2)OCO3)[C@H](C)CN([C@H](C)CO)C(=O)c2cc(NS(=O)(=O)c3ccc(F)cc3)ccc2O1` gave Tg IFNy HTS 104.9.
For CCCn1ncc(C(=O)N(C)Cc2nc3ccsc3c(=O)[nH]2)c1C the results were Tg IFNy HTS -12.7.
CCCN(C)C[C@H]1Oc2cc(/C=C/c3ccccc3)ccc2S(=O)(=O)N([C@H](C)CO)C[C@H]1C was read as Tg IFNy HTS -92.4*.
`CCn1cc(CN(C)Cc2nc(-c3cc(OC)ccc3F)oc2C)cn1` gave Tg IFNy HTS -7.1.
`CC1(C)NC(=O)N(CCC(=O)NC2CCN(CC3(c4ccccc4)CCCC3)CC2)C1=O` gave Tg IFNy HTS 114.0.

Compounds above with a cyano group:
Screening N#C[C@H]1[C@@H](c2ccc(-c3cccnc3)cc2)[C@@H](CO)N1C(=O)C1CCOCC1 returned Tg IFNy HTS 6.1.
`COc1ccc(-c2ccc([C@@H]3[C@@H](CO)N(C(=O)NC(C)C)[C@H]3C#N)cc2)cc1` gave Tg IFNy HTS 7.0.
Screening Cc1[nH]c(=O)c(C#N)cc1-c1ccc2nccn2c1 returned Tg IFNy HTS 8.5&24.2.
